# eIF4H FP inh = human eIF4H binding inhibitors, primary screen, translation initiation inhibitor project, biochemical, uHTS, fluorescence polarization | Eukaryotic translation initiation factor 4H (Homo sapiens), Q15056 | eIF4H fluorescence polarization binding assay | inhibition, % at 35 µM | 290,000 tested, 0.94% active | AID 2012, 2009;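 active = 50% or more with normal probe brightness, or confirmed in later tests; about a fifth of its hits are not listed in these tables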;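 note: calls also rest on retests at 20 µM and on dose response follow-up; 0% = protein and probe with vehicle and 100% = probe without protein; strong numbers were not always called active; many hits fall short of the cut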
# Rce1 inhib = yeast Rce1p protease inhibitors, primary screen, biochemical, fluorescence, cell-free homogeneous | CAAX prenyl protease 2 (Saccharomyces cerevisiae (strain ATCC 204508 / S288c)), Q03530 | yeast membranes, quenched prenylated peptide cleavage fluorescence | calls only | 290,000 tested, 0.27% active | AID 2563, 2010;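 active = fall in fluorescence gain of 50% or more versus controls, with final raw signal at or below 3038400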;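 note: plate controls were neutral control wells for no effect and wells lacking membranes for full effect; tested at 10 µM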
# Target sequence (Q03530 whole entry, looked up): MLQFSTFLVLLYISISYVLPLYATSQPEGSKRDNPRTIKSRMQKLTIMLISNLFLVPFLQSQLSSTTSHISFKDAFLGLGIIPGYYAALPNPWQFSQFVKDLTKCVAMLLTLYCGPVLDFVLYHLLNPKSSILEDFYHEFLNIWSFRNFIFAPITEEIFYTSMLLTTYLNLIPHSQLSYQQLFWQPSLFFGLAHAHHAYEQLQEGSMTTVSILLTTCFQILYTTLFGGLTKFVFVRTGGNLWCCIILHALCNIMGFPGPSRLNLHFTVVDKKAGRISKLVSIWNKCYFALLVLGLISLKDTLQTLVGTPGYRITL
# UUG fidelity = modulators of yeast start codon fidelity, primary screen, whole organism, S. cerevisiae, single point, plate reader; activity score, % at 18.7 µM; S. cerevisiae UUG-firefly luciferase reporter, luminescence/redox ratio; 350,000 tested, 0.13% active;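 active = replicate mean at a twofold rise or more, about +100% in these data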;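 note: firefly luciferase made from a UUG start codon reports start codon fidelity; reporter light over untreated wells divided by growth signal over untreated wells; some hits fall short of that in this replicate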
# MT1-MMP act inh = blockers of MT1-MMP proenzyme processing, primary screen, HT1080 RFP-PRO-GFP cells, GFP/RFP fluorescence; Matrix metalloproteinase-14 (Homo sapiens), P50281; GFP/RFP ratio fluorescence, overnight; percent of plate control window, DMSO zero; GFP/RFP ratio change, % at 20 µM; 360,000 tested, 0.061% active; AID 651647, 2012;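 active = GFP/RFP ratio change of at least 30% with cell ATP level not reduced by more than half and red fluorescence within 50% of control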; note: strong numbers were not always called active
#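 Assay system: RFP-PRO-GFP reporter HT1080 cells; read-out basis: GFP/RFP fluorescence ratio; benchmarks: DMSO wells and RFP-L50D-GFP cells; doses: 20 µM single dose, 1% DMSO; schedule: overnight cell settling, then overnight compound exposure, 37 °C, 5% CO2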
# PABP polyA inh = PABP poly(A) RNA binding inhibitors, primary screen, biochemical, fluorescence polarization, uHTS | Polyadenylate-binding protein 1 (Homo sapiens), P11940 | inhibition, % at 35 µM | 290,000 tested, 1% active | AID 2014, 2009;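 active = 50% or more with normal probe brightness, or confirmed in later tests; about a fifth of its hits are not listed in these tables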;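 note: calls also rest on retests at 20 µM and on dose response follow-up; controls were probe without protein and protein plus probe with vehicle; some compounds called inactive have numbers as strong as hits; many hits fall short of the cut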
# CSC inhib = cancer stem cell viability inhibitors, primary screen, luminescence | 300,000 tested, 1.1% active | inhibition, % at 7.5 µM | cancer stem cell-like cells viability | AID 2717, 2010;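 active = mean at 75% or more and at least half the replicates too; tested in HMLE shEcad cells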;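 note: 0% = median of negative and 100% = median of positive control wells; the first replicate is given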
# HIV Env fusion = inhibitors of HIV-1 Env-driven cell-cell fusion, primary screen, HeLa-JRFL effector, CEM21 target cells, luciferase; inhibition, % at 12.3 µM; 360,000 tested, 1.1% active; AID 651610, 2012;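 active = mean replicate inhibition score of at least 50 and every replicate individually at or above 50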;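 note: 0% = plate neutral controls and 100% = maraviroc near 300 nM; one replicate is shown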
# eIF4H FP inh retest = also measured in eIF4H FP inh; calls as there; inhibition, %; compound at 20 µM; confirmation average;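 mean of two retest wells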
# PABP polyA inh retest = recorded beside PABP polyA inh, whose call it bears; inhibition, %; compound at 20 µM; confirmation repeats;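 mean of two retest wells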
# MT1-MMP act inh RFP = also measured in MT1-MMP act inh; calls as there; RFP signal change, %; measured here: RFP expression control read;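 0 = vehicle wells; hits needed this value within 50% of zero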
# Numbers without * were called inactive; i = inactive; x = not tested or not shown.
SMILES,eIF4H FP inh,Rce1 inhib,UUG fidelity,MT1-MMP act inh,MT1-MMP act inh RFP,PABP polyA inh,CSC inhib,HIV Env fusion,others
COc1cccc2cc(C(=O)N(Cc3ccccc3)CC3CCCO3)c(=O)oc12 (stereo not given),2.7,i,-3.8,2.1,1.6,5.2,-1.0,-82.8,
CN(C)CCN(Cc1ccccc1)C(=O)c1[nH]c(C(F)(F)F)nc1-c1ccccc1,x,x,-13.3,2.4,1.9,x,x,15.1,
COc1ccc(-n2c(CN3CCN(c4ccc(F)cc4)CC3)nc3ccc([N+](=O)[O-])cc3c2=O)c(OC)c1,-8.0,i,x,-1.3,-6.1,11.6,-4.5,5.9,
Cc1ccc(C)n1-c1ncc(Br)cn1,-10.1,i,x,1.3,5.1,-15.2,-7.2,3.2,
Cc1nnc(NC(=O)c2ccco2)s1,-3.3,i,4.3,0.1,4.8,-11.4,-4.3,-11.5,
Cc1ccccc1NC(=O)CCCSc1nc2ccccc2s1,-2.9,i,x,0.5,4.7,2.0,16.6,10.1,
Cc1nc([N+](=O)[O-])cn1CC(O)c1ccc(-c2ccccc2)cc1 (stereo not given),-9.4,i,-8.3,3.0,-1.2,8.5,-4.3,8.0,
CCn1c(N)c(C(=O)NC2CCCCC2)sc1=S,1.9,i,-6.8,4.9,0.4,-4.8,28.0,-56.2,
O=C(N/N=C/c1ccc[nH]1)c1c[nH]c2ccccc12,-8.9,i,-15.8,x,x,-4.6,x,-4.4,
CCCC(C)C(=O)Nc1ccc(NC(C)=O)cc1 (stereo not given),-6.8,i,-19.7,1.7,4.7,-2.9,-7.2,x,
CCCCCCCCCC(=O)OCC(O)CO (stereo not given),-5.5,i,-22.4,1.9,6.8,2.9,-1.8,16.1,
COc1cccc(NC(=O)CCc2c(C)nn(-c3ccc(N4CCOCC4)nn3)c2C)c1,-11.3,i,-8.4,0.2,7.4,-4.2,6.2,-6.7,
O=C(O)C1Nc2c(cccc2C(F)(F)F)C2C=CCC12 (stereo not given),80.1*,i,x,x,x,61.4*,-4.7,x,
O=C(CSc1n[nH]c(=O)[nH]c1=O)NCC1CCCCC1,-6.9,i,-12.9,-5.1,1.1,-2.2,-14.3,5.5,
Clc1ccccc1C1CC(c2ccccc2)=Nc2ccccc2N1 (stereo not given),-14.3,i,x,0.0,-4.0,-6.4,40.4,-2.7,
COc1cc(-c2nnc3sc(-c4ccncc4)nn23)cc(OC)c1OC,x,i,-23.1,2.8,-1.6,x,-2.8,-6.2,
Cc1ccccc1NC(=S)Nn1cnnc1,-7.9,i,-7.1,-0.9,2.6,4.0,-4.0,-2.5,
O=C(NN=Cc1c[nH]c2ccccc12)NN=Cc1c[nH]c2ccccc12,x,x,-7.2,2.5,2.7,x,x,-41.4,
COc1cccc(-c2nc(-c3ccc(NC(=O)c4ccncc4)cc3)no2)c1,-9.4,i,3.3,8.2,-9.4,-11.9,x,-34.9,
O=C(NNC(=O)C1C2CCC(C2)C1C(=O)O)c1cccc(Cl)c1 (stereo not given),-5.7,i,-2.1,4.3,6.1,3.1,-8.1,-9.7,
CC1CN(C(=O)COc2ncnc3ccccc23)CC(C)O1 (stereo not given),-8.9,i,-15.7,3.6,3.6,2.1,-0.5,32.8,
Cc1ccc(C(=O)c2coc3ccc(O)c(Cl)c23)cc1,-10.9,x,-12.9,x,x,4.1,9.2,-21.4,
COC(=O)c1ccc(NC(=O)c2ccc3c(c2)C(=O)N(Cc2cccnc2)C3=O)cc1,4.7,i,-12.6,-3.1,-1.6,18.5,-7.2,-34.9,
CNC(=O)C1Cc2c(-c3ccc4c(c3)OCO4)ccnc2O1 (stereo not given),x,x,-9.6,6.9,2.3,x,x,18.9,
Cc1c(C=O)n(C)n(-c2ccccc2)c1=O,6.7,i,-13.7,2.5,4.9,-7.6,-10.0,-3.7,
COc1cc(C(=O)NCCC(=O)NC2CCC(C)CC2)cc(OC)c1OC (stereo not given),-11.3,i,-13.6,-2.2,0.9,-5.1,9.2,-4.8,
O=C(Nc1scc(-c2ccccc2)c1C(=O)O)c1ccccc1Cl,-10.2,i,4.9,-0.9,1.4,14.2,1.8,-51.2,
Cc1ccc(C(=O)Nc2c(C)n(C)n(-c3ccccc3)c2=O)cc1S(=O)(=O)N1CCCCC1,x,x,-1.9,2.2,1.2,x,-18.7,x,
N#C/C(=C(\O)Cc1ccccc1)c1nc2ccccc2[nH]1,1.6,i,-9.0,3.5,0.6,8.6,-7.9,x,
Cc1ccc(S(=O)(=O)NCc2ccncc2)cc1,3.9,i,-19.9,-10.1,-24.5,3.0,-7.4,x,
O=C(NCc1ccncc1)c1csc([C@@H]2O[C@H](CO)[C@@H](O)[C@H]2O)n1,x,x,-2.2,-2.6,-1.1,x,x,4.5,
COc1cc(OC)cc(C(=O)NCc2cccnc2)c1,-1.2,i,-14.5,-2.7,1.4,-2.6,-1.0,x,
CC(C)CCN1CCN(Cc2ccc(C#CC(C)(C)O)s2)CC1CCO (stereo not given),1.2,i,x,0.8,5.4,12.1,9.9,11.6,
Cc1onc(-c2ccccc2Cl)c1C(=O)N1CCC(Cc2ccccc2)CC1,2.3,i,x,-7.3,-20.8,-1.7,-22.8,4.5,
Cc1nccn1CC(O)COC1CCCCC1 (stereo not given),11.3,i,-20.6,-2.8,-0.9,8.3,-2.3,x,
CC(=O)c1cc2c(cc1NS(=O)(=O)c1ccc3c(c1)OCCO3)OCO2,3.7,i,x,5.6,-3.3,-3.5,-12.8,x,
CCCNC(=O)c1ccc2c(c1)S(=O)(=O)c1ccccc1C2=O,-8.7,i,-9.5,-2.2,1.5,-2.6,2.9,-8.2,
O=C(NCC1CCCO1)C1CCN(S(=O)(=O)c2cc(Cl)ccc2Cl)CC1 (stereo not given),-1.9,i,-4.6,2.5,1.3,1.0,x,4.4,
CC1C(=O)N(Cc2cn(Cc3ccco3)nn2)CCS(=O)(=O)N1Cc1ccc(-c2ccc(Cl)c(Cl)c2)cc1 (stereo not given),x,x,-6.6,-3.7,-11.0,x,x,1.6,
CC(C)n1c(-c2ccco2)csc1=Nc1cccnc1,0.5,i,-8.1,-2.9,-12.2,10.9,13.2,25.3,
O=C(Nc1cccc(Cl)c1)N1CCN(Cc2ccccc2)CC1,-0.5,i,-11.8,-0.3,2.9,-1.4,8.7,-59.4,
COc1cc(CN2CCNC(=O)C2CC(=O)N2CCCCO2)cc(OC)c1 (stereo not given),0.2,i,x,-3.6,-0.8,-2.2,-5.4,-12.3,
Cc1ccccc1C(=O)N1CCN(c2ccc([N+](=O)[O-])c(NCc3ccco3)c2)CC1,-8.0,i,-7.5,2.3,-7.5,1.6,17.1,x,
CCOC(=O)CCCNc1ccc([N+](=O)[O-])cc1[N+](=O)[O-],2.7,i,-5.7,2.6,1.3,9.6,-10.5,x,
CCC1Oc2ccccc2N(CC(=O)NCCc2ccc(OC)c(OC)c2)C1=O (stereo not given),-0.1,i,1.1,0.5,3.1,-2.8,-3.8,-132.5,
CCn1cc(-c2ccnc3cc(C(=O)O)nn23)c(C)n1,-12.4,i,-10.2,3.3,1.5,-9.8,-7.9,8.9,
c1ccc(Cc2nnc3n2CCCCC3)cc1,-9.3,i,-13.8,5.3,3.2,-3.0,12.2,x,
CCOc1ccc(CCN2C(=O)C(=O)N([C@@H](CC(C)C)CN3CCC[C@@H]3CN3C(=O)C(=O)NC[C@@H]3Cc3ccccc3)C[C@@H]2CC(C)C)cc1,x,x,-2.8,3.0,-4.7,x,x,-5.7,
CCc1cc2c(=O)n(C(C)C(=O)OC3CCCCC3)cnc2s1 (stereo not given),-14.6,i,-8.4,0.2,-3.1,-2.2,0.9,x,
COc1ccccc1NC(=O)CSc1nc(N)c(C#N)cc1C#N,87.3*,i,-12.1,-7.7,-0.4,-1.2,-8.2,14.8,eIF4H FP inh retest=83.6*;PABP polyA inh retest=16.4
CC(C)c1[nH]nc2c1C(c1cccnc1)C(C#N)=C(N)O2 (stereo not given),-1.3,i,-23.7,-6.9,2.1,-1.7,-2.8,9.4,
Brc1csc2ncccc12,-15.3,x,x,1.5,3.1,0.3,7.3,0.1,
CC(C)n1c(N2CCN(C(=O)N3CCCCC3)CC2)nc2ccccc21,9.7,i,3.4,-1.4,-1.5,4.2,x,-33.2,
CN(C)c1cccc(C(=O)Nc2cccc(F)c2)c1,3.5,i,-4.9,15.4,-1.3,0.4,-16.1,-93.3,
COc1ccc(-c2nnn(CC(=O)OC3CCCCC3)n2)cc1OC,0.7,i,-1.1,2.3,4.1,-5.0,-4.9,-16.5,

# Compound activity (PubChem BioAssay)

# Not a hit list. Share with any hit: about 2.9%.
